# LASV entry inh: blocks Lassa virus binding to or entry into cells; Lassa virus pseudotype entry inhibition, cell reporter; control for the full effect not named in the record; Potency, µM (titrated, usually from 37.9 µM), inactives show at the highest dose activity change, negative = inhibition, actives largely listed as inhibitors; 300,000 compounds, 1.2% hits; active means well fitted inhibition curve with a large enough effect; inconclusive means small, poorly fitted or top-dose-only effect, or effect the other way; inactive means flat fitted curve, though single readings scatter; tested in HEK293 cells; also: % is scaled to controls: 0 for no effect and ±100 for the full control effect; nearly all actives have a fitted effect of over 50% in size; luciferase read-out
# SARS PLpro yeast: inhibitors of SARS-CoV papain-like protease in yeast; S. cerevisiae expressing SARS-CoV PLpro, growth rescue; control for the full effect not named in the record; Potency, µM (titrated, usually from 32.9 µM), for the others: at the highest dose activity, positive = growth rescue; 330,000 compounds, 0.19% hits; AID 485353; also: 0% is about no effect; nearly all actives have a fitted effect of over 55% in size; growth read by luminescence after 48 h
# RE007 growth inh: less growth of the S. pombe RE007 Vpr strain; S. pombe RE007 Vpr strain, BacTiter-Glo ATP luminescence, 24 h; control for the full effect not named in the record; 360,000 compounds, 0.21% hits; AID 651644; Potency, µM (highest dose often 92.2 µM), for inactives: at the highest dose activity change, negative = less growth; active = well fitted falling curve with a large enough effect; inconclusive = small, poorly fitted or top-dose-only effect; inactive = no such curve, though single readings can be large or run the other way;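 also: % is scaled to controls: 0 for no effect and ±100 for the full control effect; nearly all actives have a fitted effect of over 50% in size; the assay follows cell death caused by Vpr and the record does not say whether a fall means rescue or toxicity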
#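 Fission yeast strain RE007, carrying one chromosomally integrated HIV-1 vpr copy, was seeded at OD 0.01 in PMG+AL medium with 23 nL pinned compound. After 24 h at 30 °C and 99% humidity, viability was read by BacTiter-Glo luminescence.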
# Marburg entry inh: inhibitors of Marburg virus binding or cell entry; Marburg virus pseudotyped entry inhibition, cell reporter; control for the full effect not named in the record; about a third of the inactives were read at about 46 µM; 300,000 compounds, 1.8% hits; AID 540276; Potency, µM (titrated, usually from 37.8 µM), for the others: top-dose activity change, negative = inhibition, most hits filed as inhibitors; active = well fitted inhibition curve with a large enough effect; inconclusive = small, poorly fitted or top-dose-only effect, or effect the other way; inactive = flat fitted curve, though single readings scatter; tested in HEK293 cells; about a fifth of its hits are not listed in these tables; also: % is scaled to controls: 0 for no effect and ±100 for the full control effect; luciferase read-out
# Cruzain noTriton: blocks cruzain activity in detergent-free assay; 200,000 compounds, 2.3% hits; purified cruzain, Z-FR-AMC fluorescence, no detergent; P25779; AID 1476; Potency, µM, for inactives: max response, negative = inhibition, most hits filed as inhibitors; active = well fitted curve in the direction sought with a large enough effect; inconclusive = small, poorly fitted or top-dose-only effect, or another doubt; inactive = no such curve, though single readings can be large; an effect the other way counts as inactive or inconclusive;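 also: plate controls were enzyme without inhibitor for no effect and buffer without enzyme for full effect; nearly all actives have a fitted effect of over 40% in size; top concentration of the series not given in the record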
# Target sequence (P25779 123-467 limits assumed): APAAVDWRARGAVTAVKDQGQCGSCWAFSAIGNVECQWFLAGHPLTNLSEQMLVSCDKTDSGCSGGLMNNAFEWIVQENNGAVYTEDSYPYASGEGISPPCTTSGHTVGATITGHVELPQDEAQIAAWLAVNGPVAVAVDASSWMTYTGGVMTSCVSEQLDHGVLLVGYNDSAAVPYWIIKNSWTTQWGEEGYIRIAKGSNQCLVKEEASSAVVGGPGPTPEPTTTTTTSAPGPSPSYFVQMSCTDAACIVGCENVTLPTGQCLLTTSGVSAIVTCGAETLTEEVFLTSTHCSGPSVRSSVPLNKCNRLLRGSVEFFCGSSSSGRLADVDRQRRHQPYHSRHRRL
#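 Purified cruzain at 1.5 nM, pre-incubated 15 min with compound at room temperature in 100 mM sodium acetate pH 5.5, 5 mM DTT, 0.00005% Triton X-100. Reaction started with 2 uM Z-FR-AMC; AMC fluorescence increase over 60 s gives rate.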
# NS1 function inh: influenza NS1 inhibition. S. cerevisiae slowed by influenza A NS1, growth recovery by OD600. Potency, µM (highest dose often 46.1 µM), inactives show at the highest dose activity, positive = more growth. 270,000 compounds, 0.4% hits. AID 2326; also: actives are rising curves; nearly all actives have a fitted effect of over 50% in size
#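 Read-out: OD600 growth recovery of NS1-expressing budding yeast. Cells grown overnight at 30C in -URA glucose medium, washed, resuspended and diluted 1:100 in 2% galactose assay medium, pH 6.0. Same strain lacking NS1 served as positive control.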
# Cruzain inh Det: inhibitors of Trypanosoma cruzi cruzain with detergent. AID 1478. Potency, µM, for inactives: max response, negative = inhibition, hits mostly inhibitors. purified cruzain, Z-FR-AMC fluorescence, 0.01% Triton. 200,000 compounds, 0.43% hits; active = well fitted curve in the direction sought with a large enough effect; inconclusive = small, poorly fitted or top-dose-only effect, or another doubt; inactive = no such curve, though single readings can be large; an effect the other way counts as inactive or inconclusive;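 also: plate controls were neutral wells for no effect and buffer without enzyme for full effect; nearly all actives have a fitted effect of over 40% in size; top concentration of the series not given in the record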
#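 Detergent-containing arm of a paired screen for aggregation-based inhibition: 0.01% Triton X-100 present. Cruzain at 1.5 nM cleaved 2 uM Z-FR-AMC at pH 5.5 with 5 mM DTT; AMC fluorescence gain over 60 s measured activity.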
# 2A StopGo: lowers the luciferase signal of an FMDV 2A StopGo reporter; human cells with a luciferase reporter of 2A StopGo recoding; control for the full effect not named in the record; Potency, µM (doses to about 57.9 µM), for the others: at the highest dose signal change, negative = less light; 410,000 compounds, 1.2% hits; active = well fitted falling curve with a large enough effect; inconclusive = small, poorly fitted or top-dose-only effect; inactive = no such curve, though single readings can be large or run the other way; tested in HEK293T cells; also: % is scaled to controls: 0 for no effect and ±100 for the full control effect; nearly all actives have a fitted effect of over 45% in size; luciferase light after 4 h
# * = called active by the depositor; u = inconclusive; x = not tested or not shown; & = joins results of further samples; [ ] = remark or other dose. Unless noted, calls follow the shape of the dose curve; as a rule, active means well fitted rising curve with a large enough effect; inconclusive means small, poorly fitted or top-dose-only effect; inactive means no such curve, though single readings can be large or run the other way. Potency is read from the fitted curve at half-maximal effect.
SMILES,LASV entry inh,SARS PLpro yeast,RE007 growth inh,Marburg entry inh,Cruzain noTriton,NS1 function inh,Cruzain inh Det,2A StopGo
COc1cc(C(CCN2CCN(c3ccccc3)CC2)c2c(OC)cc(OC)c3ccc(=O)oc23)cc(OC)c1OC (stereo unspecified),x,0.1%,-22.1%,x,x,5.0%,x,-11.4%
Nc1n[nH]c2ccccc12,x,2.7%,2.4%,x,2.3%,-1.0%,-0.2%,-19.8%
Cc1ccc(Cl)cc1NC(c1ccc(F)cc1)c1nnc(-c2ccccc2)o1 (stereo unspecified),9.1%[46.1 µM],x,x,x,-17.5%,x,6.1%,-26.9%
O=C(Cn1c(=O)oc2cc(S(=O)(=O)N3CCCC3)ccc21)N1CCN(C2CCCCC2)CC1,x,0.1%,17.6%,-2.2%,-2.1%,-0.9%,-3.7%,-24.4%
CC1=C(c2ccc(C)cc2)S(=O)(=O)N(CC(=O)O)C1=O,-10.5%[14.3 µM],-1.1%,3.4%,-6.7%,9.0%,2.7%,3.3%,-12.2%
CCCCN(C(=O)C1CCC1)c1c(N)n(CC(C)C)c(=O)[nH]c1=O,1.3%,-3.4%,-5.3%,-2.5%,x,x,x,-17.8%
CSCCC(NC(=O)c1ccc(Cl)cc1)C(=O)OCC(=O)Nc1cc(Cl)ccc1C (stereo unspecified),-5.2%,11.4%,5.4%,20.6%,u,-6.8%,22.4µM*,-9.4%
CC(=O)c1c(C)[nH]c(C(=O)Nc2ccccc2N2CCOCC2)c1C,-25.1%,1.2%,-1.6%,-3.3%,x,x,x,-24.1%
Cc1ccc(C(=O)Nc2sc(C)c(-c3ccccc3)c2C(N)=O)cc1[N+](=O)[O-],u,4.8%,-14.1%,u,u,8.5%,4.6%,1.78µM*
COc1cc(OC)cc(C(=O)Nc2cc(C)on2)c1,x,-14.0%,-10.2%,x,x,5.4%,x,8.8%
Cc1nc(C(C)N(C)Cc2nc(Cc3ccccc3F)no2)c(C)s1 (stereo unspecified),u,0.4%,4.4%,3.8%[46.1 µM],x,0.5%,x,-9.7%
COc1cc(CNC(C)(C)C)cc(Br)c1OCc1cccs1,u,30.0%,-7.2%,u,7.4%,-1.5%,2.9%,0.0%
CCN(CC(=O)Nc1c(F)cccc1F)C(=O)C1CC(=O)N(CCc2ccccc2)C1 (stereo unspecified),10.3%,x,-10.3%,-1.1%[46.1 µM],x,x,x,0.2%
Cc1ccc(CSc2nncn2-c2ccccn2)cc1,-13.0%,13.2%,-13.4%,u,10.3%,3.5%,-0.3%,8.2%
CCCNC(=O)NC(=O)CN1C(=O)NC(C)(c2ccc3ccccc3c2)C1=O (stereo unspecified),u,-4.6%,-1.7%,u,x,-5.3%,x,u

# 3 entries out of the list, ordered by molar mass, highest first.
SMILES,LASV entry inh,SARS PLpro yeast,RE007 growth inh,Marburg entry inh,Cruzain noTriton,NS1 function inh,Cruzain inh Det,2A StopGo
Cc1ccc(Cl)cc1NC(c1ccc(F)cc1)c1nnc(-c2ccccc2)o1 (stereo unspecified),9.1%[46.1 µM],x,x,x,-17.5%,x,6.1%,-26.9%
CC(=O)c1c(C)[nH]c(C(=O)Nc2ccccc2N2CCOCC2)c1C,-25.1%,1.2%,-1.6%,-3.3%,x,x,x,-24.1%
Nc1n[nH]c2ccccc12,x,2.7%,2.4%,x,2.3%,-1.0%,-0.2%,-19.8%

# The main list resumes, repeating the two entries before the break.
SMILES,LASV entry inh,SARS PLpro yeast,RE007 growth inh,Marburg entry inh,Cruzain noTriton,NS1 function inh,Cruzain inh Det,2A StopGo
Cc1ccc(CSc2nncn2-c2ccccn2)cc1,-13.0%,13.2%,-13.4%,u,10.3%,3.5%,-0.3%,8.2%
CCCNC(=O)NC(=O)CN1C(=O)NC(C)(c2ccc3ccccc3c2)C1=O (stereo unspecified),u,-4.6%,-1.7%,u,x,-5.3%,x,u
CCN1CCN(c2cc(C)c3cc(NC(=O)c4cc(OC)cc(OC)c4)ccc3n2)CC1,u,0.6%,0.8%,u,-14.9%,-3.2%,-8.3%,14.2%&23.6%
O=C(NCc1ccccn1)c1ccc(N2CCCC2=O)cc1,u,-1.9%,-6.5%,29.7%,12.2%,1.9%,2.9%,57.8%[activator]
Cc1ccc(C)n1-c1nnc(N2CCC(C(=O)NCc3ccc(F)cc3)CC2)s1,-18.2%[46.1 µM],x,x,1.3%[46.1 µM],5.2%,x,-4.6%,-25.1%
CC1CCN(C(=O)CN(C2CCCCC2)S(C)(=O)=O)CC1,3.3%,6.6%,22.9%,-21.4%[46.1 µM],0.3%,-6.5%,5.6%,-3.5%
C=CCc1c(O)nc(SCC(=O)c2ccccc2)[nH]c1=O,2.9%,5.4%,-25.2%,u,-16.0%,u,-4.3%,-16.5%
Cc1ccnc(-n2c(C)cc(C=O)c2C)c1,3.0%,0.7%,-10.9%,1.5%,x,6.3%,x,-8.1%
CCn1c2ccccc2c2nnc(N3CCN(c4cccc(Cl)c4)CC3)nc21,u,x,x,x,u,x,-7.1%,0.4%
CCOC(=O)C(=CNc1cscc1S(=O)(=O)C(C)C)C(=O)OCC,10.1%[46.1 µM],0.7%,-12.1%,-8.7%[46.1 µM],x,0.5%,x,5.9%
Clc1ccc(CCNC(c2ccc(Cl)cc2)c2nnc(-c3ccccc3)o2)cc1 (stereo unspecified),-26.6%[46.1 µM],x,x,-3.3%[46.1 µM],7.5%,x,-4.0%,18.8%
O=P(OC1CCCCC1)(OC1CCCCC1)C(Nc1ccccc1)c1cccnc1 (stereo unspecified),2.9%,-2.7%,-6.4%,u,x,-38.3%,x,-28.1%
O=C(O)/C=C/c1cn(-c2ccccc2)nc1-c1ccc2c(c1)OCCO2,-0.5%,4.8%,-0.1%,-6.8%[46.1 µM],x,4.7%,x,10.9%
CC(C)Cc1ccc(S(=O)(=O)N2CCC(c3ccncc3)CC2)cc1,u,x,x,x,u,x,-4.0%,u
Cc1ccc(N2CC(C(=O)O)CC2=O)cc1 (stereo unspecified),-11.0%,0.9%,-0.6%,18.4%[46.1 µM],x,1.1%,x,-9.3%
Cc1cccc(Nc2nc(NCc3ccco3)c3ccccc3n2)c1,5.8µM*,-82.7%,-1.8%,u,-1.5%,-35.6%,-27.8%,28.2µM*
CCOC(=O)c1ccc(C(=O)OCC)nc1,11.8%,-3.4%,11.3%,-0.9%,-7.0%,-0.1%,3.9%,44.7%[activator]
CCOC(=O)C(CCC(C)=O)C(=O)c1ccccc1 (stereo unspecified),x,18.6%,3.5%,x,x,13.1%,x,0.7%
CN1OC2C(=O)N(c3ccccc3)C(=O)C2C1c1ccc(F)cc1 (stereo unspecified),40.0%[14.3 µM],u,-5.8%,13.0%,1.0%,u,3.0%,-20.5%
CSc1nc2c(c(=O)[nH]1)C(c1cccs1)C1=C(CCCC1=O)N2 (stereo unspecified),5.6%,-3.8%,-2.0%,6.9%,2.7%,-2.7%,-1.0%,17.5%
N#Cc1cc(Cl)c(NCC2CCCO2)cc1C#N (stereo unspecified),11.9%[46.1 µM],2.9%,1.9%,6.1%[46.1 µM],x,11.3%,x,-7.0%
CC(C)CNC(=O)C1CCN(S(=O)(=O)c2ccc(-n3cnnn3)cc2)CC1,14.8%,1.0%,0.7%,6.9%[46.1 µM],x,3.6%,x,-12.3%
CCCCC12CN3CC(C)(CN(C1)C3c1ccccn1)C2=O (stereo unspecified),12.2%[46.1 µM],x,x,-8.0%[46.1 µM],-4.2%,x,2.5%,-23.1%
Cc1ccc(NC(=O)CCC(=O)NNC(=O)Cc2ccccc2)cc1C,3.7%,1.9%,2.7%,26.9%,-14.7%,13.5%,2.2%,x
O=C(NCc1ccccc1)NC1(C(=O)N2CCN(c3ncccn3)CC2)CCCCC1,10.2%,-7.6%,-4.0%,11.4%,-9.7%,-3.0%,2.5%,24.7%
CCCCCCCCCOc1ccc2[nH]cc(CCN)c2c1,x,-9.5%,x,x,12.0%,x,-7.2%,-15.4%&-9.4%
Cc1ccc(S(=O)(=O)NC(CC(=O)NCc2ccco2)c2ccco2)cc1 (stereo unspecified),-6.2%,-0.8%,5.3%,u,2.8%,-3.6%,1.5%,-16.2%
COc1ccc(S(=O)(=O)Nc2cc3c4c(oc3c3ccccc23)CC(C)(C)CC4=O)cc1,u,-1.4%,1.2%,14.6µM*,-3.8%,1.2%,0.6%,19.9%
COCCNC(=O)/C(C#N)=C/c1ccc2c(c1)OCO2,21.9%[46.1 µM],-0.3%,1.1%,29.6%[46.1 µM],x,5.7%,x,30.8%[activator]
CC1(C)CC(NC(=O)Nc2ccc([N+](=O)[O-])cc2)CC(C)(C)N1,5.4%,-0.6%,-7.6%,0.2%[46.1 µM],x,x,x,-6.3%
CCCCOC(=O)Nc1nc(CC(=O)OCC)cs1,-1.2%,-0.7%,14.1%,0.4%,-18.8%,0.1%,-1.0%,16.9%
OCC1(CCc2ccccc2)CCN(Cc2cnc(N3CCCC3)s2)CC1,-5.7%[46.1 µM],0.0%,-4.3%,u,x,0.3%,x,-13.9%

# Source: PubChem BioAssay
